Source: PubChem BioAssay (Broad Institute)
AF4-AF9 inh = inhibitors of AF4 peptide binding to AF9, primary screen, biochemical, AlphaScreen, biotin-AF4 peptide, FLAG-AF9, single point. Protein AF-9 (Homo sapiens), P42568. hit rate 0.47% among 350,000. AID 651704, 2012. inhibition, % at 10 µM;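 active = every replicate reaching a set inhibition limit, whatever the replicate mean, cut at about 25% in these data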;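 note: 0% = plate neutral control median and 100% = total signal loss; the record names both 10 and 1 µM as test concentration; the first replicate is given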
Target sequence (P42568 whole entry, looked up): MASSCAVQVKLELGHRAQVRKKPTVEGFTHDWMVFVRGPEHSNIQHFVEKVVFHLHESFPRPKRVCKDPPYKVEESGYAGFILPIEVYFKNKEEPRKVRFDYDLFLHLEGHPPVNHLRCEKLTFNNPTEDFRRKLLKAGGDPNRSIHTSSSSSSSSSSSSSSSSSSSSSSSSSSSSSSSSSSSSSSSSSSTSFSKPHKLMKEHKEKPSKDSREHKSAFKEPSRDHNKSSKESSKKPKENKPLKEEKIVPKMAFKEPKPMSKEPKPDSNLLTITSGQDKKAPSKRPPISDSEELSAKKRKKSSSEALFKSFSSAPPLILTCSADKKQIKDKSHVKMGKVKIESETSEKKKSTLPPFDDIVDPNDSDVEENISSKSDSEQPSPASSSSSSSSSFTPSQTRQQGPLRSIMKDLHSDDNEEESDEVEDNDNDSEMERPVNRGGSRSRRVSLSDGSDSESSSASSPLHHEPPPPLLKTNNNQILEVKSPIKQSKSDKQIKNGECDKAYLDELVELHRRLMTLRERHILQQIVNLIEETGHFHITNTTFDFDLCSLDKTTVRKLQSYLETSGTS
rRNA inh HTS = reduced GFP signal of wild-type E. coli, primary screen, bacterial rRNA inhibitor project, GFP/RFP fluorescence, OD600, single point. E. coli WT GFP vs humanized-ribosome RFP mutants, 24 h; active compounds read low; DMSO median 0, no signal -100. GFP signal change (wild-type ribosome), % (concentration not given with the values). hit rate 1.6% among 350,000;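 active = significant combined selectivity score with lowered wild-type GFP, culture density cut under 30%, mutant RFP and density less affected; inactive = any of these conditions unmet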; note: one replicate is shown; some compounds called inactive have numbers as strong as hits
FGF22 binding = binders of human FGF22 protein, primary screen, FGF22 synaptogenesis inhibitor project, biophysical, thermal shift, single point; Fibroblast growth factor 22 (Homo sapiens), Q9HCT0; recombinant FGF22 thermal shift, SYPRO orange fluorescence; percent of sucrose octasulfate shift, DMSO zero; calls only at 9.99 µM; hit rate 1.5% among 340,000; AID 651658, 2012;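 active = melting point raised past a set limit in the mean and every replicate; three in four hits are not shown here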
Target sequence (Q9HCT0 whole entry, looked up): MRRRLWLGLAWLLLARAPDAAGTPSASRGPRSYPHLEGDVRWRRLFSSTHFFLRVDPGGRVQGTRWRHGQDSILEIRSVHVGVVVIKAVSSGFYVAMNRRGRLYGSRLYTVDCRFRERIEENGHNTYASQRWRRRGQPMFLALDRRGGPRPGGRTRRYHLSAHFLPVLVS
rRNA inh HTS OD600 = recorded beside rRNA inh HTS, whose call it bears; OD600 change, %; measured here: OD600 growth;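 optical density of the mix in the first replicate; 0 = DMSO median and -100 = no signal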
rRNA inh HTS RFP = recorded beside rRNA inh HTS, whose call it bears; RFP signal change, %; measured here: RFP humanized mutant strains;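 first replicate; 0 = DMSO median and -100 = no signal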
The depositor's hits bear a star; i = inactive; & = joins results of further samples. Only part of the results is shown, so the mix of outcomes need not match the whole.

SMILES	AF4-AF9 inh	rRNA inh HTS	rRNA inh HTS OD600	rRNA inh HTS RFP	FGF22 binding
C[C@@H]1CCCCO[C@@H](CN(C)C(=O)CCC(F)(F)F)[C@H](C)CN([C@@H](C)CO)C(=O)c2cc(NC(=O)NC3CCCCC3)ccc2O1	0.4	-2.5	-5.3	-2.7	i
CN(C)C(=O)C[C@H]1C=C[C@H](NC(=O)C2CC2)[C@H](CO)O1	-1.6	4.4	-0.4	0.0	i
Cc1cn(CC(=O)NCCN2CCOCC2)c(=O)[nH]c1=O	-0.1	17.2	15.8	1.4	i
CN1C(=O)c2cc(NC(=O)Nc3ccc(Cl)cc3)ccc2OC[C@H]2O[C@H](CC(=O)NCCN3CCCCC3)CC[C@H]21	7.1	6.9	1.7	1.1	i
COc1ccc(S(=O)(=O)N[C@@H]2CC[C@H](CC(=O)NCCc3ccncc3)O[C@@H]2CO)cc1	-0.6	3.1	8.3	-1.6	i
CC(C)c1ccc(CNc2nc(NCC3CC3)nc3ccsc23)cc1	-0.2	-61.0	-72.0	-17.9	i
Cc1noc(C)c1NC(=O)N(C)C[C@H]1Oc2ccc(NC(=O)Nc3ccc(F)cc3)cc2CC(=O)N([C@H](C)CO)C[C@@H]1C	-1.7	-1.8	2.5	-1.7	i
CCc1nc2ccc(C(=O)NCCCN3CCCC3=O)cn2c1N(C)CCC(C)C	0.1	-7.7	-20.2	-1.5	i
O=C(C[C@@H]1C=C[C@H](NC(=O)c2ccc(F)cc2)[C@@H](CO)O1)NCc1ccncn1	-7.1	0.8	-1.4	1.1	i
CC(C)NC(=O)Nc1ccc2c(c1)C(=O)N([C@H](C)CO)C[C@@H](C)[C@@H](CN(C)Cc1ccncc1)OCCCC[C@@H](C)O2	2.1	-0.1	4.7	-1.5	i
O=C(NCc1ccccc1Cl)c1csc([C@@H]2O[C@H](CO)[C@H](O)[C@H](O)[C@H]2O)n1	7.1	9.4	16.0	1.2	i
CC(=O)Nc1cccc(C(=O)Nc2cc(C(F)(F)F)ccc2-n2cncn2)c1	-5.7	13.0	5.0	4.2	i
C[C@H]1CN([C@@H](C)CO)S(=O)(=O)c2ccc(Br)cc2O[C@@H]1CN(C)C(=O)CCN1CCCCC1	1.4&0.0	1.0&-2.2	1.2&-8.2	-0.5&-1.0	i
C[C@H](CO)N1C[C@H](C)[C@H](CN(C)Cc2ccc(-c3ccccc3)cc2)Oc2c(NC(=O)NC3CCCCC3)cccc2C1=O	4.6	-1.9	-7.1	4.2	i
COC(=O)c1ccc(Cn2c(C)c(C(=O)NCc3ccc([N+](=O)[O-])cc3)sc2=O)o1	1.5	12.1	11.2	-3.9	i
COc1ccc(C(=O)Nc2ccc3c(c2)C(=O)N(C)C[C@@H](OC)[C@@H](C)CN(C(C)=O)[C@@H](C)CO3)cc1	7.6	-1.7	-0.9	-1.0	i
CN(C)C(=O)c1ccc(-c2ccc([C@@H]3[C@@H](CO)N(S(C)(=O)=O)[C@H]3C#N)cc2)cc1	-1.8	5.1	13.3	-0.1	i
CN1CCN(C(=O)C[C@@H]2C=C[C@@H](NC(=O)Nc3ccccc3F)[C@@H](CO)O2)CC1	-5.2	2.8	0.9	-1.8	i
CCC(=O)N[C@H]1CC[C@@H](CCn2cc(-c3cccc(OC)c3)nn2)O[C@H]1CO	0.1	1.2	8.2	-1.6	i
COc1ccc(CN(C)C[C@@H]2OCCCC[C@@H](C)Oc3ccc(NC(=O)C4CCCCC4)cc3C(=O)N([C@H](C)CO)C[C@H]2C)cc1	-0.5	5.2	-0.7	-1.0	i
Cc1ccc(-c2cnc3c(c2)C(=O)N([C@@H](C)CO)C[C@H](C)[C@H](CN(C)C)O3)cc1	-2.0	0.6	-1.1	-0.4	i
C[C@@H]1CCCCO[C@H](CN(C)Cc2ccccc2)[C@H](C)CN([C@@H](C)CO)C(=O)c2cc(NC(=O)Nc3ccc(C(F)(F)F)cc3)ccc2O1	-1.0	1.4	-6.2	5.2	i
C[C@@H]1CN([C@H](C)CO)C(=O)CCCn2nncc2CO[C@@H]1CN(C)S(=O)(=O)c1cn(C)cn1	-0.8&1.0	13.6&2.2	12.0&-1.6	-0.6&-0.8	i
C[C@H]1CN([C@@H](C)CO)C(=O)c2cccc(NC(=O)c3cnccn3)c2O[C@H]1CN(C)C	-2.7	-3.5	-0.3	-2.1	i
NS(=O)(=O)c1ccc(N2N=C(c3ccccc3)CC2c2ccccc2Br)cc1 (stereo not given)	-3.0	-2.5	-3.7	5.5	i

Additional entries:
SMILES	AF4-AF9 inh	rRNA inh HTS	rRNA inh HTS OD600	rRNA inh HTS RFP	FGF22 binding
Cc1ccc(S(=O)(=O)N[C@H]2CC[C@@H](CC(=O)NCCc3ccncc3)O[C@@H]2CO)cc1	-1.0	2.2	-4.6	-1.1	i
CC[C@]1(C(=O)OC)[C@H]2C(=O)N(C)C(=O)[C@H]2[C@H]2CN=C(SCc3ccc(OC)cc3)N21	-0.3	14.8	-0.5	0.7	i
CCN(CC)CCC=C(c1cccs1)c1cccs1	4.8	14.8	17.2	3.9	i
CC1=C(C(=O)N(C(C)C)C(C)C)CC(CC(=O)NCc2cccs2)C(=O)N1CCC1=CCCCC1 (stereo not given)	0.9	-14.9	-29.9	-2.7	i
C[C@@H]1CN([C@@H](C)CO)C(=O)Cc2cc(NC(=O)Nc3ccc4c(c3)OCO4)ccc2O[C@@H]1CN(C)S(=O)(=O)c1ccc(F)cc1	7.7	-0.2	-8.2	3.3	i
N#C[C@H]1[C@@H](c2ccc(-c3ccccc3F)cc2)[C@@H](CO)N1C(=O)C1CCOCC1	1.7	-7.0	-7.6	1.0	i
CCN(C(=O)COC(=O)/C=C/c1ccc2c(c1)OCO2)c1c(N)n(Cc2ccccc2)c(=O)[nH]c1=O	-1.7	9.8	13.1	-5.7	i
N#C[C@H]1[C@H](c2ccccc2-c2ccc(F)cc2)[C@@H](CO)N1C(=O)NC1CCCCC1	-0.9	-3.6	-60.0	9.4	i
CN(Cc1ccccc1)C(=O)c1ccc(NC(=O)Cc2ccc(NC(=O)C3CCN(C(=O)C4CCC4)CC3)cc2)cc1	8.5	-3.5	-10.8	-0.6	i
O=S1(=O)N[C@@H](Cc2ccccc2)COc2cccc(N3CCCC3)c21	5.5	-1.5	-21.7	-7.9	i
O=C(CNC(=O)c1ccccc1)Sc1ccccc1	0.2	17.9	24.0	5.5	i
O=C(NCC1CC1)[C@H]1[C@H](CO)[C@H]2Cn3c(cccc3=O)[C@H]2N1C(=O)CC1CC1	-18.2	2.5	6.4	-2.0	i
O=C(c1ccc(F)cc1)N1C[C@H]2[C@@H](c3ccccc31)[C@@H](CO)N2C(=O)c1ccccc1	1.4	3.4	6.0	-0.7	i
C[C@H](CO)N1C[C@H](C)[C@@H](CN(C)S(=O)(=O)c2ccc(Cl)cc2)OCCCC[C@H](C)Oc2ccc(NS(C)(=O)=O)cc2C1=O	1.5	-5.2	-9.4	-0.5	i
CN1[C@@H]2Cn3c(ccc(C4=CCCCC4)c3=O)[C@H]1[C@@H](C(=O)NCc1cccc(F)c1)[C@@H]2CO	-0.8	-3.8	-12.7	0.5	i
CC(=O)Nc1cnc(-c2cc(C)c(O)c(C)c2)cn1	0.3	2.4	-4.4	-4.0	i
C[C@H](CO)N1C[C@H](C)[C@@H](CN(C)C)Oc2cc(-c3cccc(C#N)c3)ccc2S1(=O)=O	-1.1	1.2	5.9	-2.5	i
NC(CCc1ccccc1)c1csc(NC(=O)Nc2ccccc2Oc2ccccc2)n1 (stereo not given)	-4.6	-27.7	-34.8	-10.6	i
COc1ccc(S(=O)(=O)N(C)C[C@@H]2Oc3ccc(NC(=O)C4CCCCC4)cc3CC(=O)N([C@H](C)CO)C[C@H]2C)cc1	2.8	3.1	10.4	-3.0	i
C[C@@H]1CC2=C(C(=O)OC(C)(C)O2)[C@H](c2ccc(Cl)cc2)O1	-0.4	14.6	5.4	1.0	i
C[C@@H]1CN([C@@H](C)CO)C(=O)Cc2cc(NC(=O)CCCN(C)C)ccc2O[C@@H]1CN(C)Cc1ccc(Oc2ccccc2)cc1	28.5*	-56.2	-76.5	-20.0	i
COc1cccc(CSC(C(=O)O)c2ccccc2)c1 (stereo not given)	-1.2	2.2	7.7	-2.8	i
Clc1ccccc1CNCc1ccc2c(c1)OCO2	-2.0	5.6	1.2	1.7	i
COc1ccccc1-c1cnc(C(O)c2cc(Cl)cc(Cl)c2)[nH]1 (stereo not given)	3.2	-54.3	-77.6	-17.4	i
CCS(=O)(=O)Nc1ccc2c(c1)C(=O)N(C)[C@@H]1CC[C@@H](CC(=O)N3CCCCC3)O[C@H]1CO2	-0.4	-0.2	0.2	-3.1	i

Reformatted comma-delimited: 6 of the compounds above.
SMILES,AF4-AF9 inh,rRNA inh HTS,rRNA inh HTS OD600,rRNA inh HTS RFP,FGF22 binding
CC1=C(C(=O)N(C(C)C)C(C)C)CC(CC(=O)NCc2cccs2)C(=O)N1CCC1=CCCCC1 (stereo not given),0.9,-14.9,-29.9,-2.7,i
CC(=O)Nc1cnc(-c2cc(C)c(O)c(C)c2)cn1,0.3,2.4,-4.4,-4.0,i
COc1ccc(S(=O)(=O)N(C)C[C@@H]2Oc3ccc(NC(=O)C4CCCCC4)cc3CC(=O)N([C@H](C)CO)C[C@H]2C)cc1,2.8,3.1,10.4,-3.0,i
C[C@H](CO)N1C[C@H](C)[C@@H](CN(C)C)Oc2cc(-c3cccc(C#N)c3)ccc2S1(=O)=O,-1.1,1.2,5.9,-2.5,i
O=S1(=O)N[C@@H](Cc2ccccc2)COc2cccc(N3CCCC3)c21,5.5,-1.5,-21.7,-7.9,i
O=C(NCC1CC1)[C@H]1[C@H](CO)[C@H]2Cn3c(cccc3=O)[C@H]2N1C(=O)CC1CC1,-18.2,2.5,6.4,-2.0,i

Later entries:
SMILES	AF4-AF9 inh	rRNA inh HTS	rRNA inh HTS OD600	rRNA inh HTS RFP	FGF22 binding
CC(=O)N1CC[C@H]2[C@@H]1c1cc(-c3cccc(F)c3)ccc1N(C)[C@H]2CO	-6.7	7.3	-4.2	-3.2	i
C[C@@H]1CN([C@@H](C)CO)C(=O)c2cc(NS(C)(=O)=O)ccc2O[C@H]1CN(C)C(=O)Nc1ccccc1	-8.0	2.7	7.4	-0.4	i
C[C@@H]1CN([C@H](C)CO)C(=O)c2ccccc2-c2ccccc2CO[C@@H]1CN(C)Cc1ccc(O)cc1	-3.1	1.6	-3.3	-2.3	i
CCNC(=O)[C@@H]1[C@@H](CO)[C@@H]2Cn3c(ccc(-c4ccc(F)cc4)c3=O)[C@H]1N2Cc1ccccc1F	0.3	-3.5	1.5	-0.3	i
O=C(NCc1cccs1)C1Cc2c(-c3ccccc3Oc3ccccc3)ccnc2O1 (stereo not given)	-1.0	-3.2	-20.9	-2.4	i
CCC1(C2=CCCCC2)C(=O)NC(=O)N=C1N (stereo not given)	-24.1	6.5	1.6	-2.1	i
Cc1ccccc1S(=O)(=O)N[C@H]1CC[C@@H](CCn2cc(Cc3ccccc3)nn2)O[C@@H]1CO	0.2	-3.4	-3.9	-0.7	i
C[C@H]1CN([C@@H](C)CO)S(=O)(=O)c2ccc(Br)cc2O[C@H]1CN(C)Cc1ccccc1	4.7&5.5&3.1	-9.8&-10.8	-22.7&-32.0	-2.8&8.0	i
CCCC#Cc1cnc2c(c1)C(=O)N([C@@H](C)CO)C[C@@H](C)[C@@H](CN(C)C(=O)c1ccc3c(c1)OCO3)O2	-2.4	7.1	5.3	-2.5	i
C[C@@H]1CCCCO[C@H](CN(C)C(=O)NC2CCCCC2)[C@H](C)CN([C@@H](C)CO)C(=O)c2cc(NC(=O)Nc3ccc(F)cc3)ccc2O1	-1.3	0.7	3.7	0.1	i
CN1C(=O)c2cc(NC(=O)C3CCCCC3)ccc2OC[C@@H]2O[C@H](CC(=O)NCc3ccccc3F)CC[C@@H]21	-1.2	-10.5	-20.0	-0.7	i
CC(C)N1CCC(C)(C(=O)Nc2cccc3c2CCCC3)C1 (stereo not given)	7.4	8.4	18.6	5.9	i
Cc1ccc(S(=O)(=O)Nc2ccc3c(c2)CC(=O)N([C@@H](C)CO)C[C@@H](C)[C@H](CN(C)C(=O)Nc2c(C)noc2C)O3)cc1	0.0	2.0	-1.0	-0.5	i
CC(C)NC(=O)Nc1ccc2c(c1)C(=O)N([C@@H](C)CO)C[C@@H](C)[C@@H](CN(C)Cc1ccc(-c3ccccc3)cc1)O2	6.9	-20.9	-53.4	30.9	i
COc1ccc(-c2cc(C(=O)Nc3cc(OC)c(OC)c(OC)c3)[nH]n2)c(C)c1	-1.0	2.2	9.3	-0.5	i
C[C@@H]1CN([C@H](C)CO)C(=O)c2cccc(NC(=O)c3cnccn3)c2O[C@@H]1CN(C)Cc1ccccc1	-3.8	0.6	8.0	0.9	i
CN1C(=O)c2cc(NC(=O)Nc3ccccc3Cl)ccc2OC[C@@H]2O[C@H](CC(=O)NCCCN3CCOCC3)CC[C@@H]21	-16.3	-1.2	3.4	0.3	i
